Screening data as filed in PubChem BioAssay.
LANA-H2A inh = blockers of LANA interaction with H2A/H2B – biochemical, FP readout, HTS, primary screen. Protein LANA1 (Human herpesvirus 8 type P (isolate GK18)), Q9QR71. cell-free LANA-H2A/H2B peptide, fluorescence polarization. inhibition, % (no concentration beside the values). hit rate 0.6% among 320,000; in the data active means inhibition mostly above about 10%, no sharp cut-off; inactive means mostly below about 6.7%;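 further: stock transfer was 7.5 nL into about 10 µL; 0% = median of vehicle wells and 100% = median of positive control wells; one replicate is shown; the record names a cut of 25% in any replicate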
ALR H2O2 inh = inhibitors of human ALR sulfhydryl oxidase, primary screen, biochemical, H2O2 detection, HRP-luminol luminescence, single point; purified ALR, DTT oxidation; inhibition, % (test concentration not listed); hit rate 3.8% among 290,000; AID 485317, 2010;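 active means mean and each replicate at 75% or more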;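 further: stock transfer was 7.5 nL into about 7.5 µL; 0% = neutral wells and 100% = wells with inactivated enzyme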
FGF22 binding = binders of human FGF22 protein, primary screen, FGF22 synaptogenesis inhibitor project, biophysical, thermal shift, single point | calls only at 9.99 µM | hit rate 1.5% among 340,000 | recombinant FGF22 thermal shift, SYPRO orange fluorescence; percent of sucrose octasulfate shift, DMSO zero;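 active means melting point raised past a set limit in the mean and every replicate; three in four hits are not shown here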
Target sequence (Q9HCT0 whole entry, looked up): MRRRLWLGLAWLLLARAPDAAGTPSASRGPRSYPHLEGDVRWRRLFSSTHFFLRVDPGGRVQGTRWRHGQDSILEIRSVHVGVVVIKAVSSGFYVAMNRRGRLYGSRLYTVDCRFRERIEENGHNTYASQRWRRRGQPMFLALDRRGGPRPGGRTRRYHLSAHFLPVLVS
UCH37 DUB inh = inhibitors of human UCH37 deubiquitinase, primary screen, biochemical, Ub-AMC cleavage, fluorescence. Ubiquitin carboxyl-terminal hydrolase isozyme L5 (Homo sapiens), Q9Y5K5. purified proteasome/UCH37. inhibition, % (no concentration beside the values). hit rate 0.33% among 330,000. AID 588478, 2011;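 active means mean of two replicates above 20%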;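 further: 0% = compound-free wells with enzyme and 100% = wells lacking proteasome; stock transfer was 100 nL into about 20 µL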
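Schedule: 30 min plus 25 min, room temperature / Material: human UCH37 within purified proteasomes / Technique: AMC fluorescence intensity at 355/460 nm / Buffer or medium: pH 7.4 Tris-HCl (50 mM) with ovalbumin, ATP-MgCl2, DTT / Controls: wells without proteasome as full block, compound-free enzyme plus substrate as uninhibited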
E coli growth = E. coli growth inhibition, primary screen, OD600. Escherichia coli growth, 23 h; active compounds read low. OD600 absorbance (concentration not given with the values). hit rate 0.21% among 330,000;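 active means OD600 absorbance below the run mean of sample wells minus 3.6 SD, in any replicate, cut at about 0.56 in these data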;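 further: stock transfer was 300 nL into about 60 µL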
HNF4A DNA FP = change in binding of human HNF4A to DNA, primary screen, biochemical, fluorescence polarization, FITC-DNA; hit rate 0.3% among 360,000; 1 h; activity change, % at 10 µM; in the data active means activity change above about 30%, passing the limit was not always enough;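 further: controls were the assay level and a saturating level of protein; the project sought stronger binding though the title names inhibitors; some compounds called inactive have numbers as strong as hits; positive values seem to mean higher polarization but the record does not say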
Target sequence (P41235 whole entry, looked up): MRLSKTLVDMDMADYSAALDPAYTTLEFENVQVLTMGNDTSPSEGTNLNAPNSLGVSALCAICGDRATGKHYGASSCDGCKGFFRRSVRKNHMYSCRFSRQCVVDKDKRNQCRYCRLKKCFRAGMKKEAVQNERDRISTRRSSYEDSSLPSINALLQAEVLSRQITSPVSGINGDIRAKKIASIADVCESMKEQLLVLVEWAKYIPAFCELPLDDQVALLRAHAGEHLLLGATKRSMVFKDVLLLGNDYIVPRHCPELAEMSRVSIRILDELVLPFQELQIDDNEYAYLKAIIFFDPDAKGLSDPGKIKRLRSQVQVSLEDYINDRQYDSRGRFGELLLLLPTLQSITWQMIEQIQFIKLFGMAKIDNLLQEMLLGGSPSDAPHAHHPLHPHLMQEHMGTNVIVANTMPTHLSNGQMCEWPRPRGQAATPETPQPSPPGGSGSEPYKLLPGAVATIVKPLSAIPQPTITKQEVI
Beta2AR agonist = beta2AR agonists driving receptor internalization, primary screen, cell-based, FAP fluorogen, flow cytometry; response, % (no concentration beside the values); hit rate 0.43% among 340,000; Am2.2-beta2AR cells; reference of the scale not given here;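 active means response above a set limit, near 3 SD of response in nonfluorescent compounds, cut at about 42% in these data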;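 further: stock transfer was 100 nL into about 11 µL; a reference agonist was the positive control; negative values mostly stem from fluorescent compounds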
Target sequence (P07550 whole entry, looked up): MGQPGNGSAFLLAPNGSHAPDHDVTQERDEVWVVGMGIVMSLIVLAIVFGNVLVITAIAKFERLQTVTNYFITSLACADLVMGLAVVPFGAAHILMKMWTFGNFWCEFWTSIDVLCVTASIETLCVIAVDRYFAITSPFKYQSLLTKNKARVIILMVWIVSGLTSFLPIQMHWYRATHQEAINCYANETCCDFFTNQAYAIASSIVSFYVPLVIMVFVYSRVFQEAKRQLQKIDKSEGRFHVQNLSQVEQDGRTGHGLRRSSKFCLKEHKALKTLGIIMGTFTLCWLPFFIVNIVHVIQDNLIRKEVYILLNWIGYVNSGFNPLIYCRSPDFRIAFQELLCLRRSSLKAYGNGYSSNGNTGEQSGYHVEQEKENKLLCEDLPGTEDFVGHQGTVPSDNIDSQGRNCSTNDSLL
An asterisk follows results filed as active; i = inactive; · = not tested or not shown. Some of the compounds tested; the hit share may differ from the screen's.

SMILES | LANA-H2A inh | ALR H2O2 inh | FGF22 binding | UCH37 DUB inh | E coli growth | HNF4A DNA FP | Beta2AR agonist
CCCCc1cc(=O)oc2cc(C)cc(OC(C)C(=O)NC(Cc3c[nH]c4ccc(O)cc34)C(=O)O)c12 (stereo unspecified) | -1.3 | -9 | i | -50 | 0.75 | -1.5 | -1
Cc1ccc(SCC(=O)N(C)CC(=O)Nc2cccc(F)c2)cc1 | -0.1 | -11 | · | 4.4 | 0.65 | 1.9 | 13
COC(=O)CN1C(=O)C(O)(CC(=O)c2cccc(Br)c2)c2ccccc21 (stereo unspecified) | 4.5 | -117 | i | 4.4 | 0.67 | -0.9 | -2
O=C(NNC(=O)c1nn(-c2ccc(F)cc2)ccc1=O)Nc1cccc(Cl)c1 | 3.6 | -2 | i | 3.4 | 0.69 | 2.2 | 7
Cc1cc(C)n2nc(SC(C)C(=O)NC3CCCCC3C)nc2n1 (stereo unspecified) | -0.7 | 3 | i | -1.7 | 0.7 | 1.1 | -1
Cc1ccc(C(=O)NCC(=O)Nc2cccc(C(F)(F)F)c2)cc1 | · | · | · | 4.8 | 0.69 | 0.5 | -8
Cc1cc(NC(=O)c2cc(-c3ccncc3)nc3c(C)cccc23)no1 | -9.4 | -5 | · | -37 | 0.71 | -2.8 | -9
CS(=O)(=O)N1CCC(C(=O)NCc2ccc(F)cc2)CC1 | -1.4 | 5 | i | -1.3 | 0.62 | 1.4 | -9
CCCCCC(=O)Nc1ccccc1N1CCOCC1 | 1.2 | 99* | · | 4.3 | 0.71 | 1.9 | -5
CCOc1cc(/C=N/NC(=O)c2ccc(NC(=O)C3CC3)cc2)ccc1O | -3.8 | 32 | i | · | · | 1.5 | 0
CN(C(=O)CSc1nc2ccccc2c(=O)n1-c1ccccc1Cl)C1CCS(=O)(=O)C1 (stereo unspecified) | -1.2 | -2 | i | 1.3 | 0.65 | 4.8 | -2
Cc1cc(C(=O)OCC(=O)NC2CC2)c2ccccc2n1 | 3.2 | -2 | i | -2.5 | 0.69 | 1.9 | -5
CC(=O)N1CCN(CCN=CC2=C(O)CC(c3ccc(Cl)cc3)CC2=O)CC1 (stereo unspecified) | 0.1 | -8 | · | 5.2 | 0.74 | 3.7 | 0
O=C(C1CCN(c2nc(-c3ccccc3)nc3c2CCC3)CC1)N1CCCC1 | -3.4 | · | i | 0.8 | 0.72 | -2.1 | -18
COc1ccc(NC(=S)NCc2ccccc2Cl)c(OC)c1 | -0.8 | -2 | i | 0.5 | 0.64 | 5.2 | 2
CC1(C2CC2)NC(=O)N(CC(=O)N2CCN(c3ccccc3Cl)CC2)C1=O (stereo unspecified) | · | · | · | 1.5 | 0.66 | 1.5 | 7
COC(=O)[C@H](CCSC)NC(=O)NC1CC1 | -2.9 | -8 | i | 0.1 | 0.68 | 0.7 | -4
Cn1nc(-c2ccccc2)c2ncc(C(F)(F)F)cc21 | -4.6 | 1 | · | -109 | 0.68 | 1.4 | -1
Cc1nn(-c2ccc(N3CCOCC3)nn2)c(C)c1CCC(=O)Nc1ccc(F)cc1 | -3.6 | -6 | i | 8.2 | 0.71 | 4.5 | -13
COc1cc(/C=C/C(=O)NCC2CCCCC2)cc(OC)c1OC | 0.6 | -2 | i | -4.7 | 0.69 | 1.0 | -2
COc1cc(OC)cc(C(=O)Nc2cc(NC(=O)c3ccco3)ccc2OC)c1 | 1.7 | -9 | · | 4.9 | 0.7 | -6.2 | -2
C#CCNC(=O)C1=C[C@H](c2cn(C(C)=O)c3ccccc23)C[C@H](OCc2ccc(CO)cc2)O1 | 0.8 | -12 | i | 0.4 | · | 3.5 | -4
CC1CC(C)CN(S(=O)(=O)c2ccc(NC(=O)C3CSC4(C)CCC(=O)N34)cc2)C1 (stereo unspecified) | -1.0 | -2 | i | 3.2 | 0.67 | 5.1 | 13
O=C(/C=C1\SC(=O)N(CC(=O)Nc2ccc(Cl)cc2)C1=O)Nc1ccc(F)cc1 | 2.0 | 4 | i | 6.0 | 0.75 | 0.7 | -10
Cc1ccc(C(=O)Nc2ccc(N3CCN(C)CC3)cc2)cc1C | 2.2 | 12 | i | 2.4 | 0.64 | 3.7 | 10
CCc1ccc(C(=O)NNC(=O)c2c(CC)noc2C)cc1 | 0.4 | 4 | i | 1.2 | 0.7 | -41 | -4
CN(Cc1ccccc1)S(=O)(=O)c1ccc(NC(=O)C2CCCCC2C(=O)O)cc1 (stereo unspecified) | -0.6 | · | i | -0.3 | 0.66 | -3.0 | 6
COc1ccc(CC(=O)NCc2nc(-c3ccccc3)no2)cc1 | -3.8 | -1 | i | 6.2 | 0.72 | 1.1 | -4
Cc1cccc(OCC(=O)Nc2cccc3nsnc23)c1 | 1.8 | -13 | · | -61 | 0.67 | 0.0 | 8
Cc1ccc(S(=O)(=O)N/N=C\c2ccc3c(c2)OCO3)cc1C | 7.4 | 18 | i | · | · | 0.9 | 3

Complete entries as entered above. Order of values: LANA-H2A inh | ALR H2O2 inh | FGF22 binding | UCH37 DUB inh | E coli growth | HNF4A DNA FP | Beta2AR agonist
Entry for `CC1CC(C)CN(S(=O)(=O)c2ccc(NC(=O)C3CSC4(C)CCC(=O)N34)cc2)C1` (stereo unspecified) → -1.0 | -2 | i | 3.2 | 0.67 | 5.1 | 13
Entry for `Cc1nn(-c2ccc(N3CCOCC3)nn2)c(C)c1CCC(=O)Nc1ccc(F)cc1` → -3.6 | -6 | i | 8.2 | 0.71 | 4.5 | -13
Entry for `COc1cc(/C=C/C(=O)NCC2CCCCC2)cc(OC)c1OC` → 0.6 | -2 | i | -4.7 | 0.69 | 1.0 | -2
Entry for `COc1ccc(CC(=O)NCc2nc(-c3ccccc3)no2)cc1` → -3.8 | -1 | i | 6.2 | 0.72 | 1.1 | -4
Entry for `Cn1nc(-c2ccccc2)c2ncc(C(F)(F)F)cc21` → -4.6 | 1 | · | -109 | 0.68 | 1.4 | -1

Going on with the list.
SMILES | LANA-H2A inh | ALR H2O2 inh | FGF22 binding | UCH37 DUB inh | E coli growth | HNF4A DNA FP | Beta2AR agonist
COc1ccc(Oc2c(Cl)cnn(-c3ccccc3)c2=O)cc1 | -5.3 | -1 | · | 1.2 | 0.68 | 1.3 | 28
COc1ccc(CN2CCNC(=O)C2CC(=O)N(C)C2CCOCC2)c(F)c1 (stereo unspecified) | -2.9 | -5 | i | -4.8 | 0.7 | -3.0 | 12
CC1Sc2ccc(S(=O)(=O)CCC(=O)N3CCc4ccccc43)cc2NC1=O (stereo unspecified) | 1.3 | 0 | i | 3.6 | 0.66 | 3.3 | 2
Cn1nc(C(=O)OCC(=O)c2ccc[nH]2)c2ccccc2c1=O | 3.4 | -9 | i | 1.9 | 0.7 | 3.5 | -3
Cc1[nH]n(-c2ccc(Cl)cc2)c(=O)c1C=Nc1ccc(S(=O)(=O)N2CCOCC2)cc1 | -6.3 | -3 | · | 11 | 0.69 | -2.3 | 14
CN(C)C(=O)c1ccc(-c2n[nH]c(=O)c3ccccc23)cc1 | 1.9 | -22 | i | 4.2 | 0.67 | -6.0 | -18
CCOC(=O)C1(CCc2ccccc2)CCN(Cc2ccccn2)CC1 | -1.0 | 2 | i | 4.9 | 0.67 | 1.0 | 11
CCc1ccc(N/C(N)=N/c2nc(CSc3ccccn3)cc(=O)[nH]2)cc1 | -4.4 | -3 | i | 1.9 | 0.67 | 0.2 | 6
CCCCn1c(N)c(N(CCC(C)C)C(=O)c2cc(S(=O)(=O)N3CCOCC3)ccc2F)c(=O)[nH]c1=O | -26 | -1 | i | -2.0 | 0.59 | -2.7 | 0
CCN(CC)S(=O)(=O)c1ccc(N2CCN(S(=O)(=O)c3ccccc3C#N)CC2)nc1 | · | · | · | 7.0 | 0.78 | -1.9 | 9
Clc1ccc(CNc2ccc(CNc3ncn[nH]3)cc2)c(Cl)c1 | -1.8 | 9 | i | 1.6 | 0.6 | 1.6 | 3
Nn1cnnc1N/N=C\c1ccc(-c2ccccc2[N+](=O)[O-])o1 | · | · | i | · | · | -0.6 | 9
Cc1ccc(/C=N/NC(=O)c2cc(-c3ccccc3)nc3ccccc23)o1 | 3.8 | 0 | i | · | · | 1.4 | -23
O=C(c1ccccc1)c1cccc[n+]1[O-] | 0.0 | · | i | -0.4 | 0.65 | 2.3 | 6
CC(C)CC(NC(=O)CCl)c1ccccc1 (stereo unspecified) | 4.9 | · | · | 1.3 | 0.69 | 1.2 | 4
COc1ccc(S(=O)(=O)N2CCc3ccccc3C2)cc1 | -4.9 | -14 | · | -0.5 | 0.71 | 1.2 | -6
Cn1cc(S(=O)(=O)N2CCCC2)cc1C(=O)N1CCN(c2cccc(Cl)c2)CC1 | -1.7 | 0 | i | 5.5 | 0.73 | -0.8 | -4
CN(CCOC(=O)CN1C(=O)c2ccccc2C1=O)C1=NS(=O)(=O)c2ccccc21 | 0.7 | -4 | · | 4.7 | 0.7 | · | ·
Cc1ccc(NC(=O)CSc2nc3ccccc3c(=O)n2CCCN2CCCCC2)cc1Cl | -3.5 | 51 | i | 7.4 | 0.68 | 7.1 | 28
CS(=O)(=O)OCCCCOS(C)(=O)=O | 0.4 | -9 | i | 2.3 | 0.71 | 0.0 | 2
Cc1ccc(NCc2ccccc2O)cc1C | -2.7 | 91* | i | 2.0 | 0.65 | 0.4 | -2
CCc1c(C(=O)N/N=C/c2sccc2C)nnn1-c1nonc1N | 0.9 | · | i | · | · | 3.7 | -19
COc1cccc(C2C(C(C)=O)=C(O)C(=O)N2CCc2c[nH]c3ccccc23)c1 (stereo unspecified) | -1.7 | 24 | · | 4.8 | 0.72 | -3.6 | 5
C[C@H](CO)N1C[C@H](C)[C@@H](CN(C)C(=O)Nc2ccc3c(c2)OCO3)Oc2ccc(NC(=O)Cn3cnnn3)cc2C1=O | 0.8 | -9 | i | 3.1 | 0.74 | 3.9 | -1
Cc1cccc(OS(=O)(=O)NC(=O)OCC2CCCN3CCCCC23)c1 (stereo unspecified) | -4.0 | 4 | i | -10 | 0.64 | 1.7 | 6
O=C(COC(=O)c1ccc(F)c(S(=O)(=O)N2CCOCC2)c1)NCc1ccccc1 | -3.3 | -4 | i | 0.4 | 0.73 | -5.4 | -7
COc1ccccc1N1CCN(C(=O)c2ccc(S(=O)(=O)N3CCCCC3)cc2)CC1 | -3.0 | · | · | 2.0 | 0.68 | 0.5 | -1
COCCn1nnnc1C(C(C)C)N(Cc1cccnc1)Cc1cc2cc(OC)ccc2[nH]c1=O (stereo unspecified) | -1.8 | -12 | · | -32 | 0.67 | -1.3 | 0
COc1cc(C(=O)NCc2ccccc2Cl)ccc1OCC(=O)N1CCOCC1 | · | · | i | 1.2 | 0.66 | -3.2 | 1
COC(=O)C(C(=O)Nc1cc(C)on1)C1CCCCCC1 (stereo unspecified) | -13 | 7 | · | 2.4 | 0.77 | 0.7 | 2
COc1cccc(-c2nnc(SCC(=O)Nc3ccc(OC)c(OC)c3)n2N)c1 | 2.5 | 17 | · | -1.5 | 0.66 | 6.8 | 2
Cn1ccnc1SCC(=O)Nc1ccc(Br)cc1C(F)(F)F | 2.9 | 34 | · | 4.6 | 0.73 | -2.5 | -8
CC(C)CCNC(=O)[C@@H](NC(=O)c1c(F)cccc1F)C(C)C | 1.3 | -7 | · | 4.5 | 0.71 | -0.2 | 6
Cn1c(NC(=O)c2ccco2)c(-c2ccccc2Cl)c(=O)c2ccccc21 | 3.7 | 0 | · | 7.9 | 0.66 | 8.4 | 12
Cc1ccc(O)c(NC(=O)C2=CC(c3cccs3)=NS(=O)(=O)N2C)c1 | -3.0 | -14 | i | 7.3 | 0.68 | 1.6 | -3
